Screens: PubChem, several laboratories
CBX7 AlphaScr – CBX7 chromodomain binding inhibitors, primary screen, biochemical, AlphaScreen. Chromobox protein homolog 7 (Homo sapiens), O95931. AID 1224903, 2016. AlphaScreen His6-CBX7 / biotin-H3K27me3 peptide binding; hits give low values. normalised signal (fraction of DMSO) (test concentration not listed). hit rate 1.1% among 66,000; in the data active means normalised signal below about 0.5;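 further: 100 nL library stock added to about 20 µL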
Target sequence (O95931 whole entry, looked up): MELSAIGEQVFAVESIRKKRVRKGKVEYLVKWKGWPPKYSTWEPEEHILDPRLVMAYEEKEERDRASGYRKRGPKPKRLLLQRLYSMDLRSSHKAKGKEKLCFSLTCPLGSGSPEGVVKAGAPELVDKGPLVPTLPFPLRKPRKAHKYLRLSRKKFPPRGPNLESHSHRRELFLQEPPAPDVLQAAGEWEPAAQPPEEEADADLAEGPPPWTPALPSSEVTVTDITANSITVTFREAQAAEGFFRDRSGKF
CBX7 AlphaScr z-score – recorded beside CBX7 AlphaScr, whose call it bears; z-score; measured here: z-score of CBX7 signal; some inactives read as strong as hits; reference of the scale not given here;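 same signal on another scale; lower means less binding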
Numbers without * were called inactive. Not all compounds are listed. The share of hits here may be higher or lower than overall.

no.	SMILES	CBX7 AlphaScr	CBX7 AlphaScr z-score
1	CCc1ccc(-c2nc(CN3CCCC(C(=O)NC4CCCC4)C3)c(C)o2)cc1 (stereo not drawn)	0.94	-0.77
2	CCC1=Nc2cc(C(=O)N3CCN(CC)CC3)ccc2Sc2ccc(C)cc21	0.84	-2.3
3	COc1ccc(C(=O)NCc2nnc(SCC(=O)N3CCOCC3)o2)cc1OC	0.99	-0.35
4	CCN(C(=O)Cc1c(C(=O)O)[nH]c2ccc(Cl)cc12)c1ccc(OC)cc1	1.2	2.2
5	CC(C)C(=O)Nc1ccc(S(=O)(=O)Nc2nccc(/C=C/c3ccccc3F)n2)cc1	0.84	-1.9
6	CCN(CCCNC(=O)c1cnn2c(C)c(Cc3ccccc3)c(C)nc12)c1cccc(C)c1	0.78	-4.8
7	CCOC(=O)C1CCN(c2cc(=O)n(-c3ccc(OC)cc3)c(=O)[nH]2)CC1	0.99	-0.095
8	CCc1ccccc1Nc1nc(-c2ccc(Cl)cc2)cs1	0.57	-6.3
9	O=C1CCCC2=C1C(c1ccncc1)Nc1ccc(C(=O)c3ccccc3)cc1N2 (stereo not drawn)	0.99	-0.43
10	COc1cccc(Cn2cc(C(=O)c3ccccc3)c(=O)c3cc(C)ccc32)c1	0.68	-3
11	COc1ccc(C2C(Oc3ccc(Cl)cc3C)C(=O)N2c2ccc(F)cc2)cc1OC (stereo not drawn)	1	0.02
12	O=C(NCCCN1CCCC1=O)c1csc2c1CCCCC2	0.97	-0.11
13	Cc1nc2ccccc2n1CC(O)COc1ccc(C(=O)O)cc1 (stereo not drawn)	0.99	-0.28
14	CCOC(=O)c1ccc(NC(=O)[C@H](CCS(C)(=O)=O)N2Cc3ccccc3C2=O)cc1	0.92	-1.9
15	COCCCNC(=O)C1CCN(Cc2nc(-c3ccccc3C)oc2C)CC1	1.1	0.092
16	CC1CCCCN1C(=O)c1ccc2c(c1)C(=O)N(CCC1=CCCCC1)C2=O (stereo not drawn)	0.99	-0.27
17	O=C(CCNC(=O)Cn1ccc2ccccc2c1=O)NCCc1ccc(Cl)cc1	0.97	-0.71
18	Oc1ccccc1-c1nc(NCCc2ccccc2)c2ccccc2n1	1.5	3.7
19	CCOc1ccc(CC(=O)Nc2c(C(N)=O)oc3ccccc23)cc1OCC	0.9	-1.5
20	NS(=O)(=O)c1ccc(CCNC(=O)c2csc3c2CCCCC3)cc1	0.98	-0.48

A draw from above in order of heavy-atom count, smallest number first.
no.	SMILES	CBX7 AlphaScr	CBX7 AlphaScr z-score
18	Oc1ccccc1-c1nc(NCCc2ccccc2)c2ccccc2n1	1.5	3.7
19	CCOc1ccc(CC(=O)Nc2c(C(N)=O)oc3ccccc23)cc1OCC	0.9	-1.5
11	COc1ccc(C2C(Oc3ccc(Cl)cc3C)C(=O)N2c2ccc(F)cc2)cc1OC (stereo not drawn)	1	0.02

Next part.
no.	SMILES	CBX7 AlphaScr	CBX7 AlphaScr z-score
21	CC(=O)N1CCc2cc(S(=O)(=O)CCC(=O)N3c4ccccc4CC3C)ccc21 (stereo not drawn)	1	-0.14
22	CN(C(=O)c1cc(-c2ccc(Cl)cc2)on1)c1ccccc1	0.85	-0.2
23	O=C(Nc1nc(-c2cccs2)cs1)c1ccc(Br)cc1	1	0.05
24	Cc1oc(-c2ccccc2F)nc1CS(=O)(=O)CC(=O)N1CCOCC1	1.1	2.1
25	Cc1ccccc1N1C(=O)N(c2cccc(C(F)(F)F)c2)C2CS(=O)(=O)CC21 (stereo not drawn)	1	0.055
26	Cc1cc(NC(=O)CSc2nc(NCc3ccc(Cl)cc3)c3ccccc3n2)no1	1.1	0.18
27	COc1cccc(-c2nnc(NC(=O)c3ccc(S(=O)(=O)N4CCOCC4)cc3)o2)c1	0.7	-6.7
28	NC(=O)c1oc2ccccc2c1NC(=O)c1ccc(S(=O)(=O)N2CCOCC2)cc1	1	0.38
29	CCOc1ccc2nc(N3CCC(C(=O)Nc4c(C)cccc4C)CC3)sc2c1	1	0.29
30	Cc1ccc(C)c(N2CCN(CCCNC(=O)c3ccc4nc(N5CCOCC5)sc4c3)CC2)c1	1.1	1

Individual results from above.
CBX7 AlphaScr z-score result of no. 22 = -0.2
CBX7 AlphaScr result of no. 26 = 1.1

Carrying on:
no.	SMILES	CBX7 AlphaScr	CBX7 AlphaScr z-score
31	COCCNC(=O)CCC(=O)Nc1ccc2nc(N3CCN(C)CC3)cc(C)c2c1	1	0.31
32	CCCOc1c(OC)cccc1C1CC(=O)Nc2cc3c(cc21)OCO3 (stereo not drawn)	0.81	-2.4
33	COCc1nnc(NC(=O)c2ccc(S(=O)(=O)N3CC(C)CC(C)C3)cc2)o1 (stereo not drawn)	0.82	-4.8
34	Clc1ccc2nc(-c3cccnc3)c(Nc3ccccc3)n2c1	1	0.7
35	CCCCOc1cccc(C(=O)N(Cc2ccc(C(C)C)cc2)C2CCS(=O)(=O)C2)c1 (stereo not drawn)	0.89	-0.98
36	CCOc1ccc(CNC(=O)Cn2nc(Cc3cccnc3)c3ccccc3c2=O)cc1	0.97	-0.035
37	COc1ccc(C(=O)Nc2c(-c3ccccc3)nc3cc(C)ccn23)cc1OC	0.98	-0.8
38	Cc1cccn2c(Nc3ccccc3)c(-c3ccc(N4CCOCC4)cc3)nc12	0.95	-0.98
39	Cc1cccc(-n2ccnc2SCC(=O)Nc2cc(C)on2)c1	1	0.018
40	O=C(Nc1cccnc1)c1cc2sccc2n1Cc1ccc(Cl)cc1	1	-0.073
41	CCOC(=O)N1CCc2c(sc(NC(C)=O)c2C(=O)Nc2cc(OC)ccc2OC)C1	1	-0.053
42	COc1ccc(NC(=O)C2CCN(S(=O)(=O)c3c(C)noc3C)CC2)cc1	0.99	-0.28
43	CCCN1C(=O)C(O)(c2c(C)[nH]c3ccccc23)c2ccccc21 (stereo not drawn)	1	0.61
44	COc1ccccc1OCc1nc2ccccc2n1C	1	-0.041
45	CCCCc1nc(S(=O)(=O)c2ccc(C)cc2)c(N(C)C)o1	0.95	-0.54
46	COc1cccc(-c2nn(C)c3sc(C(=O)NCc4cccnc4)cc23)c1	0.96	-1.5
47	CCOc1ccccc1Nc1nnc(Cc2ccncc2)c2ccccc12	1	-0.085
48	O=C(CCCn1c(=O)c2sccc2n(Cc2ccccc2)c1=O)NCc1ccccc1	1	0.64
49	Cc1ccc(C(=O)Nc2ccc3c(c2)ncn3-c2ccc(C)cc2)cc1	0.99	-0.029
50	Cc1ccc(OCC(=O)Nc2ccc(-c3nc4cc(Cl)ccc4o3)cc2)cc1	1	0.84

Another view of part of the listing above.
Under each structure: CBX7 AlphaScr | CBX7 AlphaScr z-score
44) COc1ccccc1OCc1nc2ccccc2n1C
→ 1 | -0.041
21) CC(=O)N1CCc2cc(S(=O)(=O)CCC(=O)N3c4ccccc4CC3C)ccc21 (stereo not drawn)
→ 1 | -0.14

The listing continues.
no.	SMILES	CBX7 AlphaScr	CBX7 AlphaScr z-score
51	CCc1ccccc1N(C)S(=O)(=O)c1ccc2[nH]cc(C(=O)NCC3CCCO3)c(=O)c2c1 (stereo not drawn)	1.2	2.9
52	CCOC(=O)c1c(NC(=O)CCCOc2ccccc2C)sc2c1CCC(C)C2 (stereo not drawn)	1.1	3
53	CCOc1ccc(CCNC(=O)c2cc(-c3cccs3)nc3ccccc23)cc1OCC	1.2	2
54	COc1ccc(-c2nc3ccccc3o2)cc1NC(=O)Cc1ccc(Cl)cc1	1.1	0.98
55	Cc1oc(-c2cccs2)nc1CN1CCCC(C(=O)NCc2cccnc2)C1 (stereo not drawn)	1	-0.093
56	O=C(CNC(=O)Cn1cnc2sc3c(c2c1=O)CCCC3)NCC1CCCO1 (stereo not drawn)	1	1
57	Cc1ccc2nc(NC(=O)Nc3ccc(F)cc3)sc2c1	0.96	-0.8
58	O=C(NCc1ccccn1)C1CCN(C(=O)c2cc3sccc3n2Cc2ccc(Cl)cc2)CC1	0.98	-1
59	O=C(NCc1cccs1)c1ccc2c(c1)N(Cc1ccccc1)C(=O)c1ccccc1S2	0.94	-0.63
60	Cc1ccc(NC(=O)c2ccc3c(c2)N(Cc2ccc(F)cc2)C(=O)CS3)cc1Cl	1	0.088
61	COCCN(CCOC)S(=O)(=O)c1ccc(C(=O)Nc2nnc(-c3cccs3)o2)cc1	0.7	-6.8
62	N#Cc1nc(COc2ccccc2Cl)oc1NCCN1CCOCC1	0.98	-0.77
63	COc1ccc(C2C(C(=O)NCc3ccc(F)cc3)CCC(=O)N2c2ccc3c(c2)OCO3)cc1 (stereo not drawn)	1	1.8
64	COc1ccc(-c2nc(SCC(=O)NC3CCCC3)c(-c3ccc(C)cc3)[nH]2)cc1	0.98	-0.32
65	Cc1cc(NC(=O)c2cc(-c3ccc(O)cc3)on2)n(-c2ccccc2)n1	1	0.48
66	Cc1ccc(C)c(CN2C(=O)c3ccccc3S(=O)(=O)c3ccc(C(=O)NC4CCCC4)cc32)c1	1	0.39
67	O=C(Cn1nc(Cc2cccnc2)c2ccccc2c1=O)Nc1ccc(F)cc1F	0.95	-0.89
68	O=C(c1ccc2c(c1)N(Cc1ccccc1)C(=O)c1ccccc1S2)N1CCCC1	0.99	-0.32
69	Cc1ccc(CNC(=O)CN2CCCN(Cc3ccc(F)cc3Cl)C2=O)cc1	0.93	-1.2
70	Cc1ccccc1OCC(O)Cn1c(=N)n(C)c2ccccc21 (stereo not drawn)	1	0.64
71	Cc1ccc(SCc2cc(=O)[nH]c(Nc3nc(C)c4cc(C)ccc4n3)n2)cc1	0.79	-2.4
72	Cc1ccccc1OCCn1c(=N)n(CC(N)=O)c2ccccc21	1.1	0.35
73	COc1ccc(C(=O)Nc2ccc3nc(N4CCN(c5ncccn5)CC4)cc(C)c3c2)c(OC)c1	1	2.1
74	Cc1ccc(NC(=O)CCc2c(C)nc3cc(-c4cccc(F)c4)nn3c2C)cc1C	0.9	-1.7
75	O=C(Nc1ccc(OC(F)(F)F)cc1)C1(S(=O)(=O)c2ccc(Cl)cc2)CC1	1.1	1.7
76	COc1ccccc1-c1cc2nc(C)c(CCC(=O)Nc3ccc(F)c(Cl)c3)c(C)n2n1	1.1	2.5
77	CCC1Oc2ccccc2N(CC(=O)N2CCOCC2)C1=O (stereo not drawn)	0.81	-2.1
78	Cc1ccc(NC(=O)c2cnn(-c3ccccc3)c2C2CCNCC2)cc1F	1.1	1.7
79	O=C(Cc1cccs1)Nc1c2c(nn1-c1ccc(Cl)cc1)CSC2	1	0.92
80	O=C(CCc1nnc2ccc(N3CCOCC3)nn12)Nc1ccc(Br)cc1	1	0.19
81	CCOC(=O)N1CCN(c2c(NCCN(C)C)c(=O)c2=O)CC1	0.93	-2
82	COc1ccc(NC(=O)c2cnc3scc(C)n3c2=O)cc1	1.1	3.4
83	CCn1c(-c2nonc2NC(C)=O)nc2ccccc21	0.96	-0.89
84	COc1ccc(OC)c(CCNC(=O)CN2C(=O)CSc3ncccc32)c1	1	2
85	Cc1ccc2nc(NC(=O)Nc3ccc4c(c3)N(C)C(=O)CS4)sc2c1	1.1	1.1
86	CCCOc1cccc(C(=O)Nc2c(C(=O)c3ccc(Cl)cc3)oc3ccccc23)c1	1.2	0.76
87	Cc1nc2c(C(=O)O)cnn2c(C)c1Cc1ccc(F)cc1Cl	0.99	-0.3
88	Cc1cc(C)c(NC(=O)CSc2nnc(CNC(=O)c3cccs3)o2)c(C)c1	1	-0.04
89	COc1ccc(-c2csc(NC(=O)c3cccnc3)n2)cc1Br	0.95	-1.1
90	COc1ccc(-c2cc3nc(C)c(CCC(=O)NCc4ccccc4)c(C)n3n2)c(OC)c1	1	0.57
91	COc1ccc(CC(=O)Nc2c3c(nn2-c2cccc(Cl)c2)CSC3)cc1	1	0.22
92	O=C(Nc1ccc(F)c(Cl)c1)C1CCCN(S(=O)(=O)c2cccs2)C1 (stereo not drawn)	1.1	2.2
93	COc1ccc(-n2nnc3c(=O)n(CC(=O)N4CCN(c5ccccc5)CC4)cnc32)cc1	0.93	-1.4
94	O=C(c1ccc2c(c1)N(Cc1ccccc1)C(=O)CS2)N1CCCC1	1	-0.045
95	Cc1ccc(S(=O)(=O)Nc2ccc3ncccc3c2)cc1	0.52	-17
96	COCCNC(=O)CC1Oc2ccc(C)cc2NC1=O (stereo not drawn)	1	1.2
97	O=C(Nc1ccc(-c2nc3ncccc3o2)cc1)c1cc2ccccc2o1	1.1	1.4
98	O=C(CNc1ccccc1-c1nc2ccccc2[nH]c1=O)NC1CC1	0.96	-1.1
99	Cc1oc(-c2cccc(Br)c2)nc1CN1CCC(C(=O)NC2CCCC2)CC1	1	0.36
100	Clc1cccc(-n2cc(-c3ccccc3)c3c(NCC4CCCO4)ncnc32)c1 (stereo not drawn)	0.94	-1.6

(next part)
no.	SMILES	CBX7 AlphaScr	CBX7 AlphaScr z-score
101	COc1ccc(CCNC(=O)CN2CCN(Cc3ccc(C)cc3)C2=O)cc1OC	1	1.8
102	CCCCOc1ccc(C(C)NC(=O)CN2C(=O)COc3ccc(C(C)(C)C)cc32)cc1 (stereo not drawn)	0.71	-5
103	CC1CCCC(NC(=O)Cn2nc(Cc3cccnc3)c3ccccc3c2=O)C1C (stereo not drawn)	1.1	0.67
104	CCOC(=O)c1cnc2ccc(OCC)cc2c1N1CCN(Cc2ccccc2)CC1	0.5*	-0.56*
105	CC(C)(C#CC(O)(c1ccccc1)c1ccccc1)N1CCCC1	1.4	3.4
106	CCOc1ccccc1N(C)C(=O)Cn1ncc2c1-c1cc(C)ccc1OC2	1	1.3
107	Cc1cccc(C(=O)Nc2c3c(nn2-c2cccc(Cl)c2)CSC3)c1	0.97	-0.51
108	CCCN1CCN(C(=O)CCN2C(=O)COc3ccccc32)CC1	0.95	-1.6
109	COc1ccc(NC(=O)Cn2cnc3sc(C)cc3c2=O)c(OC)c1	0.99	-0.33
110	OC(CN1CCOCC1)Cn1c2ccc(Cl)cc2c2cc(Cl)ccc21 (stereo not drawn)	1.1	1.6
111	Cc1oc(-c2ccc(Cl)cc2)nc1CN1CCC(C(=O)NCCC2=CCCCC2)CC1	1.1	1.6
112	Cc1ccc(NC(=O)Cn2nc(C)c3ccccc3c2=O)c(C)c1	1	1.4
113	Cc1ccc2c(c1)C(c1ccc(F)cc1)N(C(=O)c1ccccc1Cl)CC(=O)N2 (stereo not drawn)	0.86	-1.3
